High-throughput results deposited in PubChem by National Center for Advancing Translational Sciences (NCATS).
hNpr1 antagonist: antagonists of human natriuretic peptide receptor Npr1; hit rate 1.6% among 76,000; Potency, µM (series often up to 46.3 µM), without a hit: at the highest dose activity change, negative = inhibition, actives largely listed as inhibitors; HEK293 hNpr1 GloSensor cGMP, ANP-stimulated luminescence; P16066; active = well fitted inhibition curve with a large enough effect; inconclusive = small, poorly fitted or top-dose-only effect; inactive = no such curve, though single readings can be large or run the other way;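 note: nearly all actives have a fitted effect of over 60% in size; nearly all hits also lower the signal before the agonist is added; a reference antagonist and vehicle were the controls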
Target sequence (P16066 whole entry, looked up): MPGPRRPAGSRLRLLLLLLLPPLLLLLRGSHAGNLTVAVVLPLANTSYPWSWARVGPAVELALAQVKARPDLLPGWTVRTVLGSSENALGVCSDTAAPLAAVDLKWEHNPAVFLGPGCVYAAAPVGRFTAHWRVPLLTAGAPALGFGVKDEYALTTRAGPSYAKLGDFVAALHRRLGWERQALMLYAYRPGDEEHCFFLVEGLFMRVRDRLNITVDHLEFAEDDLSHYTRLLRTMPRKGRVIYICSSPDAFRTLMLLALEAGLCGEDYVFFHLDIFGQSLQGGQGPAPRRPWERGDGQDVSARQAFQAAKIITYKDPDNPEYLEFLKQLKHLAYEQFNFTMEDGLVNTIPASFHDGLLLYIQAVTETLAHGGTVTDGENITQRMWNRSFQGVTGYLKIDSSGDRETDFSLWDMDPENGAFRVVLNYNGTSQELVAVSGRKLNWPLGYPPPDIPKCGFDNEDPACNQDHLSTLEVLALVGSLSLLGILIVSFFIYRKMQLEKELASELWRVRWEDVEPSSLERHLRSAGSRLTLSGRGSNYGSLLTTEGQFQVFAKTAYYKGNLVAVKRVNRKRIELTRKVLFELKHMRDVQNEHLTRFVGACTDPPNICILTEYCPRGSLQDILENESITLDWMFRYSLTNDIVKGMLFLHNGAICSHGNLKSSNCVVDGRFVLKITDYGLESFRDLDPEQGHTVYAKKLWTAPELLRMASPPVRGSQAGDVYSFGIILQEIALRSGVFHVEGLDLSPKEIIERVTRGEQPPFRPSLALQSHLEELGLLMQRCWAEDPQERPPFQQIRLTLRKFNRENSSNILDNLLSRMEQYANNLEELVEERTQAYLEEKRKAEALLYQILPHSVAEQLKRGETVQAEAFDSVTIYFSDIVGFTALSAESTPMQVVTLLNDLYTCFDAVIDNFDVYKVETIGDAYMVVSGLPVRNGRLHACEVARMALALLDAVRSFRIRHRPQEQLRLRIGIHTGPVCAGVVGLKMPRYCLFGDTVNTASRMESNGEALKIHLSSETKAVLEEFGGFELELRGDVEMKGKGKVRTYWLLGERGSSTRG
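HEK293 cells stably expressing human Npr1 and cGMP GloSensor pGS-40F, loaded 2 h with 2% GloSensor reagent, given compound 30 min at room temperature. Luminescence read before and 20 min after 0.1 nM hNppA.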
An asterisk follows results filed as active; ? = inconclusive; [ ] = remark or other dose. % is set by controls: 0 for no effect and ±100 for the full control effect; potency is the fitted concentration of half-maximal effect. Not all compounds are listed. The share of hits here may be higher or lower than overall.

SMILES	hNpr1 antagonist
COC(=O)[C@@H]1Cc2ncn(C)c2CN1C(=O)c1ccccc1	-1%[70.6 µM]
Cc1oc(-c2cccc(Cl)c2)nc1CN1CCCC(F)(F)C1	0%
Fc1ccc(CN2CCOC[C@H]2c2ncc(-c3cccc(Cl)c3)[nH]2)cc1	?
Cc1cnc(C(=O)NC2C[C@H]3CC[C@@H](C2)N3C(=O)c2cccc(F)c2)cn1 (stereo partly specified)	0%
COc1ccccc1N1CCN(C(=O)Nc2n[nH]c(Cc3ccccc3)n2)CC1	-17%
O=C(N[C@@H]1CN(c2ccncn2)C[C@H]1CO)c1ccc(Cl)cc1	4%
O=C1CC(c2noc(Cc3ccc(Cl)cc3)n2)CN1C1CCCCC1 (stereo unspecified)	-17%
Cc1ccc(CNC(=O)CN2C(=O)NC(c3ccccc3Cl)C3=C2COC3=O)cc1 (stereo unspecified)	-9%
COc1ccc(NC(=O)CCC2CCN(C(=O)c3ccccc3)CC2)c(OC)c1	-10%
COC[C@@H]1CN(S(=O)(=O)c2cccc(F)c2)C[C@H]1c1ccncc1	-1%
Cc1ccc(CNC(=O)C2CCN(c3cnn(Cc4ccccc4)c(=O)c3)C2)o1 (stereo unspecified)	3%
COCCNC(=O)[C@H]1C[C@H](Oc2cccnc2)CN1C(=O)Nc1cccc(F)c1	4%
COc1ccc(C(CC(=O)NCc2ccccc2)c2c[nH]c3ccccc23)cc1OC (stereo unspecified)	-9%
CNC(=O)C(C)(C)N1CCC[C@H]1C(=O)N1CCc2ccccc2C1	-8%[70.6 µM]
O=C(NCCc1nc2c(s1)CCCC2)C1NCCc2[nH]cnc21 (stereo unspecified)	9%
COc1ccccc1CN1C[C@@H](C(=O)O)C[C@H](C(=O)NCc2ccccn2)C1	2%
COc1ccc(C(=O)Nc2ccnn2C2CCN(c3nccc(N)n3)CC2)cc1	1%
CN(C)CCN(C)[C@@H]1[C@H](O)[C@H](CO)O[C@@H]1CNC(=O)Nc1ccccc1	-1%
CCc1noc(-c2ccn3c(CNC(=O)c4cccnc4)nnc3c2)n1	3%
Cc1ccc(C)c(-c2cc3c(=O)n(CCNC(=O)Cc4cccs4)ccn3n2)c1	-12%
O=C(c1ccc(F)cc1)N1CCC(c2nn(-c3ccc(F)cc3)c(=O)[nH]2)CC1	0%
CC(C)Nc1ccc(-c2ccc(S(=O)(=O)NC(C)(C)C)cc2)nn1	0%
O=C(COc1ccccc1)N1C[C@@H](CO)[C@H](c2ccncc2)C1	-9%
O=C(c1ccc2c(c1)OCO2)N1CCCC2(CN[S+](=O)([O-])c3ccccc3N2)C1 (stereo unspecified)	18%
O=C(CCC1CCN(C(=O)c2ccccc2)CC1)NCCCN1CCCC1=O	4%
The list goes on.
SMILES	hNpr1 antagonist
CC(=O)NC1(C)CCN(Cc2cnc(-c3cccc(N(C)C)c3)s2)CC1	5%[70.6 µM]
CC(CCn1cccn1)NC(=O)c1ccc(OC2CCN(S(=O)(=O)N(C)C)CC2)cc1 (stereo unspecified)	0%
O=C(CCC[C@H]1NC[C@@H]2CC1CN(Cc1ccccc1)C2)NCCCN1CCCCC1	-12%
O=C1Nc2ccc(-c3ccccc3)cc2C(=O)N2CCN(C(=O)c3cccs3)C[C@H]12	-9%[70.6 µM]
COc1ccc(-c2noc([C@@H]3CCCN3C(=O)CCCc3ccccc3)n2)cc1	0%
O=C(NCCCN1CCc2ccccc2C1)c1c(OCC2CC2)cc(=O)n2c1CCCCC2	-4%
CCN(Cc1cc(C)[nH]n1)CC1CCCN(CCc2cccc(OC)c2)C1 (stereo unspecified)	1%
O=C(NCc1ccc(Cl)cc1)c1noc(-c2ccc(F)cc2)n1	1%
O=C(NCc1cccnc1)c1nc(-c2cc(Cl)cc(Cl)c2)c2ccccn12	-1%
CCc1cc(N2CCC(NCCc3cccc(Cl)c3)CC2)nc(C)n1	-3%
CCOc1ccccc1C1NC(=O)N(CC(=O)N(C)c2cccc(C)c2)C2=C1C(=O)OC2 (stereo unspecified)	4%
CC1(c2ccccc2)N(Cc2ccccc2)C(=O)OC12CCN(C(=O)c1cccc(Cl)c1)CC2 (stereo unspecified)	0%
COC(=O)[C@@H]1Cc2c([nH]c3ccccc23)[C@H]2C[C@@H](NCCN(C)C)C[C@@H](c3ccc(F)cc3)N21	0%
CC(C)NC(=O)c1cc(-c2ccc(F)cc2)cn1C	7%
COc1ccc(C(=O)N2CCC(C3CCNC3)CC2)cc1F (stereo unspecified)	5%
CN1C(=O)CC[C@]2(C(=O)NCc3cccs3)CCCC[C@@H]12	-2%
Cc1ccc(NC(=O)Nc2ccc(C)n(CC(=O)NC(C)c3cccnc3)c2=O)cc1 (stereo unspecified)	-15%
O=C(NCc1cccs1)c1cccc2c1CCN2C(=O)c1ccc(F)cc1	-14%
CNC(=O)c1cc(-c2ccc(O)c(F)c2)cc2c1OCCN2Cc1cccnc1	-2%[70.6 µM]
CCn1ccc(C(=O)N2CC(c3nc(CCOCC4CC4)no3)C2)n1	2%
COc1ccc(-c2cc(N3CCCN(C(=O)c4cccc5[nH]ccc45)CC3)n[nH]2)cc1	-21%
CCN(CC)c1cc(CCC(=O)NCCc2cccnc2)ccn1	-3%
CN(C(=O)Cn1nc2n(c1=O)CCCC2)c1ccccc1	0%
O=C(NCC1CN(C(=O)Cc2cccc(Cl)c2)CC12CN(c1ccccc1)C2)c1ccccc1 (stereo unspecified)	-15%
Cn1cc(-c2cc(C3=CCOCC3)c3cncn3c2)cn1	-2%[70.6 µM]
Next compounds:
SMILES	hNpr1 antagonist
O=C(Cn1nc2c(cc1=O)CCCCC2)NCc1nc2ccccc2[nH]1	0%
O=C(Nc1cccc2ccccc12)O[C@@H]1CO[C@H]2[C@@H]1OC[C@@H]2n1nnnc1Sc1ccccc1	0%
CCc1cccc(NC(=O)CN2CC3CC(C2)[C@H]2CCCC(=O)N2C3)c1 (stereo partly specified)	-9%
COc1cccc(CN2CCCN(S(C)(=O)=O)C(c3ccccc3)CC(=O)NCC2)c1 (stereo unspecified)	3%
COCCNC(=O)C[C@@H]1C[C@H]2O[C@H](CNCc3ccccc3Cl)[C@@H](O)[C@H]2O1	3%[70.6 µM]
Cc1cn2nc(C(=O)N3CCC(NC(=O)c4c(F)cccc4F)CC3)cc2c(=O)[nH]1	-12%
Cc1ccc(CN2CC[C@@H]3CN(S(C)(=O)=O)[C@@H]3C2)cc1C	1%
O=C(c1ccco1)N1CCCCCC1CN1CCOCC1 (stereo unspecified)	-15%
CN(C)c1nc(-c2ccccc2)nc2c1CCN(C(=O)c1ccncc1)C2	4%
CC(C)c1nncn1C1CCN(C(=O)c2cc(-c3cccs3)[nH]n2)C1 (stereo unspecified)	0%
C=CCNC(=O)N1CCOC(CN(CC(C)C)C(=O)c2ccc(OC)c(OC)c2)C1 (stereo unspecified)	2%
Cn1cc(-c2ccc(O)c(F)c2)c2nc(COc3ccc(Cl)cc3)cn2c1=O	14µM*
O=C(CC1COCCN1)NCCn1nc(-c2ccccc2)ccc1=O (stereo unspecified)	0%
O=C(NCCCN1CCOCC1)c1cccnc1N1CC2CC(C1)[C@H]1CCCC(=O)N1C2 (stereo partly specified)	-2%
COc1cccc(CNC(=O)Cn2ccn3nc4c(c3c2=O)CCCCC4)c1OC	3%
CN1CCN(C(=O)c2cn[nH]n2)CC12CCC(=O)N(CCO)CC2 (stereo unspecified)	14%
Cc1cccc(-c2nocc2CCC(=O)N2CCN(c3cccc(C)c3)CC2)c1	-4%
COCCn1ncc(N2CCC(C(=O)N3CCN(C(C)C)CC3)C2)cc1=O (stereo unspecified)	3%
O=C(COc1ccccc1)NC1CCCc2c1[nH]c1c(Cl)cccc21 (stereo unspecified)	-2%
CC1(C(=O)NCC2CC2)CCc2cnc(NCc3ccccc3)nc21 (stereo unspecified)	-4%[70.6 µM]
Cc1ccc(C2=NC3(CCN(C(=O)Cc4cccc(F)c4)CC3)ON2)cc1	-14%
CCc1nc(-c2c3n(c(=O)n(CC(=O)Nc4ccc(C)cc4Cl)c2=O)CCCC3)no1	-10%
Cc1ccc(C2Cn3nnc(-c4noc(-c5ccncc5)n4)c3CO2)cc1 (stereo unspecified)	0%
C#CCNC(=O)c1nc(-c2ccc(Cl)cc2)c2ccccn12	-1%[70.6 µM]
O=C(c1ccc(OC2CCN(C(=O)c3ccsc3)CC2)nc1)N1CCOCC1	-3%
(list continues)
SMILES	hNpr1 antagonist
CN(Cc1cccnc1)Cc1nc(C2(O)CCN(Cc3ccc(C(F)(F)F)cc3)CC2)cs1	1µM*
CS(=O)(=O)N1CCN(C(=O)C2CC(=O)N(c3n[nH]c4cccc(F)c34)C2)CC1 (stereo unspecified)	-3%
COCC1CN(C(C)=O)CC12CCN(S(=O)(=O)c1c(C)noc1C)CC2 (stereo unspecified)	2%
COc1cccc(Nc2ncc3c(n2)C(C)(C(=O)NCc2cccnc2)CC3)c1 (stereo unspecified)	-2%[70.6 µM]
CCc1nc(-c2c3n(c(=O)n(CC(=O)Nc4cccc(C)c4)c2=O)CCCCC3)no1	-2%
O=C(c1ccc(N2CCC(NCC(c3ccccc3)c3ccccc3)CC2)cc1)N1CCCC(O)C1 (stereo unspecified)	-4%
CN(Cc1cccc(C(F)(F)F)c1)S(=O)(=O)c1cccs1	-20%[70.6 µM]
CCCN1CCC2(CCN([S+](=O)([O-])c3cccs3)CC2)Oc2ccccc21	-3%
O=C(NCc1ccc(F)cc1)[C@@H]1C[C@@H](c2ccc(F)cc2)N([S+](=O)([O-])c2cccnc2)C1	2%
CCCNC(=O)N1C[C@@H](Oc2ccccc2)C[C@@H]1C(=O)NC	-9%
O=C(Nc1ccc(F)cc1)C1CCN(C(=O)c2ncn3c2COC(c2ccccc2)C3)CC1 (stereo unspecified)	?
Cc1nnc(-c2cc(-c3cccc(CO)c3)ccn2)n1C1CCCCC1	1%[70.6 µM]
N#Cc1ccc(C(=O)NCC2CCOCC2)cc1	3%
O=C(Cc1ccccc1)N1CCCC2(CNc3ccccc3[S+](=O)([O-])N2)C1 (stereo unspecified)	-7%
COCCc1nncn1C1CCN(S(=O)(=O)c2ccc(F)cc2F)CC1	-2%
COCCOC1CCN(C(=O)c2cccs2)CC1	5%
CN(Cc1ccccc1)C(=O)[C@@H]1Cc2nc[nH]c2CN1C(=O)CC(C)(C)CC(=O)O	6%[70.6 µM]
O=C([C@@H]1C[C@H](Oc2cccnc2)CN1C(=O)COc1ccc(F)cc1)N1CCOCC1	-1%
Cc1nc(-c2ccncc2)ncc1C(C)NC(=O)C1=NN(C)C(=O)CC1 (stereo unspecified)	0%
CC(C)NC(=O)N1CCN2C(=O)N(Cc3ccc(F)cc3)C[C@H]2C1	1%[70.6 µM]
NC(=O)c1ccnc(-c2cc(NCc3ccccn3)nc3[nH]ccc23)c1	0%
CCCc1noc(-c2cccn3c(CNC(=O)c4ccccc4F)nnc23)n1	-23%
COC[C@]1(O)CCN(C(=O)CN2CCCC2)CC1(C)C	11%
NC(=O)[C@H](CC1CCCCC1)NC(=O)[C@@H]1CN(C(=O)Nc2ccccc2)CCN1S(=O)(=O)c1ccccc1	1%
COc1ccc(N2CC(c3noc(-c4cccc(F)c4)n3)CC2=O)cc1 (stereo unspecified)	0%
Next section
SMILES	hNpr1 antagonist
O=C(NC1CC1)[C@@H]1C[C@H](Oc2ccccc2)CN1C(=O)CCC1CCCC1	-8%
COc1cccc(S(=O)(=O)N2CCC3(CC2)CC(OCC2CC2)CCO3)c1 (stereo unspecified)	-5%
O=C(NC1CCCCC1)c1cc2c(s1)CCN(C(=O)c1ccc(F)cc1)C2	-1%
Cc1noc(C)c1S(=O)(=O)NCC(=O)N1CCCCCCNC(=O)CC1c1ccccc1 (stereo unspecified)	5%
O=C(Nc1cccc(-c2nnc3n2CCCC3)c1)c1cnccn1	0%
O=C1NCCCCCN(C(=O)Cc2cccc(F)c2)[C@H]2CCC[C@@H]12	-3%
CSc1cccc(NC(=O)CCn2ccn3nc4c(c3c2=O)CCCC4)c1	-3%
O=C1CCN(C2CCCCC2)CCOCCN1	-9%

Copied from the results shown for reference:
SMILES	hNpr1 antagonist
CN(Cc1ccccc1)C(=O)[C@@H]1Cc2nc[nH]c2CN1C(=O)CC(C)(C)CC(=O)O	6%[70.6 µM]
O=C([C@@H]1C[C@H](Oc2cccnc2)CN1C(=O)COc1ccc(F)cc1)N1CCOCC1	-1%
Cc1nc(-c2ccncc2)ncc1C(C)NC(=O)C1=NN(C)C(=O)CC1 (stereo unspecified)	0%
CC(C)NC(=O)N1CCN2C(=O)N(Cc3ccc(F)cc3)C[C@H]2C1	1%[70.6 µM]
NC(=O)c1ccnc(-c2cc(NCc3ccccn3)nc3[nH]ccc23)c1	0%
CCCc1noc(-c2cccn3c(CNC(=O)c4ccccc4F)nnc23)n1	-23%
COC[C@]1(O)CCN(C(=O)CN2CCCC2)CC1(C)C	11%
NC(=O)[C@H](CC1CCCCC1)NC(=O)[C@@H]1CN(C(=O)Nc2ccccc2)CCN1S(=O)(=O)c1ccccc1	1%
COc1ccc(N2CC(c3noc(-c4cccc(F)c4)n3)CC2=O)cc1 (stereo unspecified)	0%
O=C(NC1CC1)[C@@H]1C[C@H](Oc2ccccc2)CN1C(=O)CCC1CCCC1	-8%
COc1cccc(S(=O)(=O)N2CCC3(CC2)CC(OCC2CC2)CCO3)c1 (stereo unspecified)	-5%
O=C(NC1CCCCC1)c1cc2c(s1)CCN(C(=O)c1ccc(F)cc1)C2	-1%
Cc1noc(C)c1S(=O)(=O)NCC(=O)N1CCCCCCNC(=O)CC1c1ccccc1 (stereo unspecified)	5%
O=C(Nc1cccc(-c2nnc3n2CCCC3)c1)c1cnccn1	0%
